Screening data from PubChem BioAssay.
Polio RdRp inh – poliovirus RdRp elongation inhibitors, primary screen, biochemical, fluorescence polarization, total intensity | Genome polyprotein (Poliovirus type 1 (strain Mahoney)), P03300 | % elongation, % (compound at 16.7 µg/mL) | poliovirus polymerase elongation; stronger effect = lower value | hit rate 0.66% among 150,000; in the data active = % elongation below about 90%; also: some results filed as inactive read as strong as hits
MenB inh – M. tuberculosis MenB inhibitors, primary screen, biochemical, absorbance. MenB enzyme assay, absorbance read-out; some hits fall short of the stated cut. inhibition, %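 (about 12 µg/mL by stock and volumes)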. hit rate 0.43% among 100,000;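 active = mean of two replicates above 30%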;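 also: 0% = no compound and 100% = wells with inactive enzyme; the first replicate is given; strong numbers were not always called active; inactives centre near -10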
Target sequence (P9WNP5 whole entry, looked up): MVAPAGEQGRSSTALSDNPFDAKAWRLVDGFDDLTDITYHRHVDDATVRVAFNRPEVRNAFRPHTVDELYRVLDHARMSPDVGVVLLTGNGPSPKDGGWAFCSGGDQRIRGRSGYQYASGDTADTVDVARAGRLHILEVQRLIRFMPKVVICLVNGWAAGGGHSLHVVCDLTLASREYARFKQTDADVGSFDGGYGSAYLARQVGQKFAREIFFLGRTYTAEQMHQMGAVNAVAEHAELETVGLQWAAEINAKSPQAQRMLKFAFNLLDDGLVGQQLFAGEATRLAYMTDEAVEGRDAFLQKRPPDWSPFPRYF
Mtb MbtI inh – MbtI salicylate synthase inhibitors, primary screen, biochemical, fluorescence intensity; purified MbtI enzyme, fluorescence intensity read-out; P9WFX0; AID 493033, 2011; hit rate 0.89% among 100,000; inhibition, %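 (about 17 µg/mL by stock and volumes)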;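 active = above 50% in both replicates, above 80% if mildly self-fluorescent; inactive = the rest, strongly fluorescent compounds included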;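 also: 0% = mean of negative and 100% = mean of positive controls; one replicate is shown; some compounds called inactive have numbers as strong as hits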
Target sequence (P9WFX0 whole entry, looked up): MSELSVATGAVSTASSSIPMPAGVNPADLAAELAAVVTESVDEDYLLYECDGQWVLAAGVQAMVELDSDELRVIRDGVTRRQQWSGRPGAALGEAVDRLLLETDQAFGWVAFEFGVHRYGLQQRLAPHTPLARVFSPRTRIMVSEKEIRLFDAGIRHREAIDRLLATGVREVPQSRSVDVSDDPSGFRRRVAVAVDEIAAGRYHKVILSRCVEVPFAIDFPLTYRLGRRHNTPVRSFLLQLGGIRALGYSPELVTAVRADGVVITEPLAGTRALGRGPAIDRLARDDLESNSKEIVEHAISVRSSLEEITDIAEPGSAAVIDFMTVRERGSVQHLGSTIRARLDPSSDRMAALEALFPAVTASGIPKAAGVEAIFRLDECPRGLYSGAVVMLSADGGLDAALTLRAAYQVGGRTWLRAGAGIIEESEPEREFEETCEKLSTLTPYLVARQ
Polio RdRp inh intensity – second read-out of Polio RdRp inh, no call of its own (marks repeat the call); % elongation; measured here: total intensity read-out; formula for this scale not given here;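 total fluorescence in place of polarization; lower means less elongation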
Active calls of the source: *; i = inactive; x = no result given; & = joins results of further samples.

SMILES	Polio RdRp inh	Polio RdRp inh intensity	MenB inh	Mtb MbtI inh
CC(C)C(=O)N(c1ccccc1)C1C=CS(=O)(=O)C1 (stereo not drawn)	102	102	-6	-7
Cc1cc(SCC(=O)Nc2oc(C)c3c(C)n[nH]c(=O)c23)nc2ccccc12	106	113	11	57
CC(C)(CO)C(O)C(=O)NC1CCCCC1 (stereo not drawn)	100	98	-89	-5
NNc1nc(-c2ccco2)cc(C(F)(F)F)n1	103	98	-18	19
CC1C(c2ccccc2)OC(c2ccccc2O)N1C (stereo not drawn)	102	101	-15	16
CN1CCN(S(=O)(=O)c2ccc3c(c2)oc(=O)c2cc(S(=O)(=O)N4CCN(C)CC4)ccc23)CC1	99	104	-6	-11
O=C(NC(NCC12CC3CC(CC(C3)C1)C2)(C(F)(F)F)C(F)(F)F)c1ccccc1	104	111	-4	x
COc1ccc(-c2noc(N3CCCC(C(=O)N(C)c4cc(Cl)ccc4OC)C3)n2)cc1 (stereo not drawn)	101	101	-4	1
COc1ccccc1NC(=O)CC1C(=O)NC2CCCCC2N1C(=O)C(F)(F)F (stereo not drawn)	100	103	5	-7
O=C(NCCN1CCCC1)Nc1ccccc1C(F)(F)F	101	101	-1	0
CCOC(=O)c1c(C2CCN(C(=O)OCC)CC2)nc2ccccn12	101	99	-1	0
O=C(O)[C@H](O)[C@@H](O)[C@H](O[C@@H]1O[C@H](CO)[C@H](O)[C@H](O)[C@H]1O)[C@H](O)CO	100	101	-5	-9
CC(C)N(C(=O)Cn1ccc(=N)c2ccccc21)C(C)C	102	108	-13	49
Nn1c(COc2ccccc2)nnc1SC(F)F	99	102	-9	-18
Cc1ccc(C2C(=O)N(C3CCCCCC3)CC(=O)N2C2CCCCC2)cc1 (stereo not drawn)	100	95	6	4
COc1ccc(S(=O)(=O)NCCN2CCOCC2)cc1-c1nnc2c3ccccc3c(C)nn12	103	107	-9	1
CNC(=O)Nc1ccc(C2SCCS2)cc1	105	111	6	-7
CSc1ncc(C(=O)NCc2ccc(F)cc2)c(C(F)(F)F)n1	99	101	-2	-12
N#CCc1c(C#N)c(N)nc(NCc2ccccc2)c1C#N	105	114	-28	104
COC(=O)c1ccc(C2c3c(oc4ccc(F)cc4c3=O)C(=O)N2CCCN(C)C)cc1 (stereo not drawn)	101	103	4	-7
Cc1cccc(C(C)C)c1NC(=O)CSc1ncnc2ccccc12	101	105	x	-6
O=C(O)C1CCN(S(=O)(=O)c2ccc(C(F)(F)F)cc2)CC1	104	102	8	-4
CCNC(=S)NS(=O)(=O)c1ccccc1	103	102	-3	24
COc1cccc(S(=O)(=O)NCC(=O)N2CCCCC2C)c1 (stereo not drawn)	99	101	12	-3
CCOc1ccc(NC(=O)CN2C(=O)C3(OCCCO3)c3ccccc32)cc1	101	108	4	-3

Some of the entries above, set out differently.
Values run as follows: Polio RdRp inh, Polio RdRp inh intensity, MenB inh, Mtb MbtI inh
O=C(O)C1CCN(S(=O)(=O)c2ccc(C(F)(F)F)cc2)CC1
    104, 102, 8, -4
CCNC(=S)NS(=O)(=O)c1ccccc1
    103, 102, -3, 24
COc1cccc(S(=O)(=O)NCC(=O)N2CCCCC2C)c1 (stereo not drawn)
    99, 101, 12, -3

The listing continues:
SMILES	Polio RdRp inh	Polio RdRp inh intensity	MenB inh	Mtb MbtI inh
O=C1c2ccccc2C(=O)N1CCN1CCCCC1	103	100	-8	x
Cc1[nH]n(-c2ccccc2)c(=O)c1C=NCc1ccncc1	103	110	2	7
CN(C)c1ccc(NC(=O)CCCc2ccccc2)cc1	100	101	-12	-4
COCCn1c(O)c(C=NCc2nc3ccccc3n2C)c(=O)[nH]c1=S	75	126	-75	-5
COC(=O)CSc1nnc(-c2ccncc2)n1-c1ccc(OC)cc1	99	97	-17	-3
Cc1csc2c(NC(C)C)ncnc12	100	90	-22	-1
COc1ccc(Cl)cc1C(=O)Nc1ccc(F)cc1F	102	103	x	21
Cc1ccccc1CN(C)C(=O)[C@H](Cc1ccccc1)NC(=O)c1ccco1	104	106	-23	-5
O=c1c2c(nc(NCCO)n1-c1ccccc1)-c1ccccc1CC21CCCCC1	98	101	-32	-254
COc1cccc2sc(NS(=O)(=O)CS(=O)(=O)Nc3nc4c(OC)cccc4s3)nc12	104	99	-8	-22
CCCc1ccc(NC(=S)OCC)cc1	108	105	-23	-3
O=C1CC(C(=O)NC2CCCCC2)C2(CCCCC2)O1 (stereo not drawn)	108	112	-16	x
CN(C)C1(CN)CCCCC1	103	103	-28	-3
Cn1c(=O)[nH]c2c(c1=O)C(c1ccc(F)cc1)C1=C(COC1=O)N2 (stereo not drawn)	x	x	-1	102
Cc1nc(N)nc2c1C(=O)CC(c1ccccc1)C2 (stereo not drawn)	105	100	-16	0
Cc1ccc(Cn2c(/N=C/c3ccc(Br)cc3)nc3ccccc32)cc1	101	98	15	3
Cc1ccsc1C=Nc1cccc2c(=O)[nH][nH]c(=O)c12	101	105	-76	79
O=C(c1ccco1)N1CCN(c2ncnc3sc4c(c23)CCCC4)CC1	101	101	-7	x
CCOc1ccccc1C1CC(=O)Nc2c1c(=O)n(C)c(=O)n2C (stereo not drawn)	100	97	-6	2
Cc1csc(=Nc2c(C)n(C)n(-c3ccccc3)c2=O)n1Cc1ccccc1	98	105	14	5
CC(=O)OCC(=O)[C@@]1(O)CCC2C3CCC4=CC(=O)C=CC4(C)C3C(=O)CC21C (stereo partly drawn)	101	103	-24	-1
COc1ccc(C(=O)N2CCN(S(=O)(=O)c3cc(Cl)ccc3OC)CC2)cc1	104	106	-18	-7
Brc1ccc(CN2CCN(Cc3ccccc3)CC2)s1	99	98	-9	-16
Cc1ccc(O)c(C(=O)c2cnn(C(=O)c3cccc(S(=O)(=O)N4CCCC4)c3)c2)c1	106	110	-15	-7
CCN(C(=O)CSc1nnc(-c2ccccc2)c(-c2ccccc2)n1)C1CCS(=O)(=O)C1 (stereo not drawn)	104	106	-14	-6

As a working copy, some entries already given:
SMILES	Polio RdRp inh	Polio RdRp inh intensity	MenB inh	Mtb MbtI inh
O=C1c2ccccc2C(=O)N1CCN1CCCCC1	103	100	-8	x
Cc1[nH]n(-c2ccccc2)c(=O)c1C=NCc1ccncc1	103	110	2	7

The listing picks up, starting five compounds before the break.
SMILES	Polio RdRp inh	Polio RdRp inh intensity	MenB inh	Mtb MbtI inh
CC(=O)OCC(=O)[C@@]1(O)CCC2C3CCC4=CC(=O)C=CC4(C)C3C(=O)CC21C (stereo partly drawn)	101	103	-24	-1
COc1ccc(C(=O)N2CCN(S(=O)(=O)c3cc(Cl)ccc3OC)CC2)cc1	104	106	-18	-7
Brc1ccc(CN2CCN(Cc3ccccc3)CC2)s1	99	98	-9	-16
Cc1ccc(O)c(C(=O)c2cnn(C(=O)c3cccc(S(=O)(=O)N4CCCC4)c3)c2)c1	106	110	-15	-7
CCN(C(=O)CSc1nnc(-c2ccccc2)c(-c2ccccc2)n1)C1CCS(=O)(=O)C1 (stereo not drawn)	104	106	-14	-6
CCOC(=O)c1c(C)[nH]c(C)c1C(=O)COC(=O)CCC1CCCC1	104	109	-17	4
CCC1(CC)Cc2ccccc2C(N)=C1C#N	98	102	-13	-10
C=CCn1c(C)cc(C(=O)COC(=O)c2ccc(S(=O)(=O)N3CCCC3)cc2)c1C	109	102	15	7
Cc1nn(-c2ccccc2)c(C)c1-c1nc2ccccc2[nH]c1=O	102	108	-24	-24
O=C(C1CCCN1)N1CCOCCOCCOCC1 (stereo not drawn)	102	103	4	-4
CS(=O)(=O)N(Cc1nc(-c2cccs2)no1)c1ccc(F)cc1	103	104	-4	0
COc1ccc(OCC(=O)NC(C)(C)C)cc1	103	103	x	-6
CCN(CC)S(=O)(=O)c1cc(-c2nn(C)c(=O)c3ccccc23)ccc1C	101	103	-4	-9
Nc1nc2ncc(CNc3ccc(C(=O)N[C@@H](CCC(=O)O)C(=O)O)cc3)nc2c(=O)[nH]1	98	100	-9	-8
O=C(O)CSCC(=O)N1CCCN(c2ccc(C(F)(F)F)cn2)CC1	107	107	0	-1
COc1ccc(-c2nnc3sc(C(C)N4C(=O)c5ccccc5C4=O)nn23)cc1 (stereo not drawn)	102	102	-11	5
O=C1C=CC(=O)N1c1ccc(F)c(Cl)c1	101	98	x	93*
COc1cccc(C(=O)N/C(=C\c2cccnc2)C(=O)N2CC3CC(C2)c2cccc(=O)n2C3)c1 (stereo not drawn)	102	101	-5	-16
COCCNC(=O)c1cc(C(=O)c2cc(Cl)ccc2O)coc1=N	113	123	-27	-18
O=C(O)CCCN1C(=O)COc2ccc(Cl)cc21	103	104	-6	9
COc1cccc(OC)c1C(=O)N1CCNCC1	104	100	-16	-1
COC(=O)C1=C(C)N=C2SC(C#N)=C(N)N2C1c1cccs1 (stereo not drawn)	113	118	-140	-3
Cc1cc(C(C)(C)C)cc(C)c1COC(=O)C1CCC(=O)N1 (stereo not drawn)	102	98	x	-5
CC1=CCC(C(=O)O)C(C(=O)Nc2nc3ccc(S(C)(=O)=O)cc3s2)C1 (stereo not drawn)	107	104	1	x
Cc1csc2nc(O)c(C(=O)NCCN(C)C)c(=O)n12	98	99	20	12
CN(C)S(=O)(=O)c1ccc(N2CCCC2)c(C(=O)OCc2cn3cc(Cl)ccc3n2)c1	101	106	-16	-4
O=C(NCCC1=CCCCC1)c1cc2c(s1)-c1ccccc1SC2	102	104	-17	54
NS(=O)(=O)c1ccc(NC(=S)NC(=O)C2CCCCC2)cc1	103	104	-18	9
CN1CCN(Cn2c(O)c(N=NC(=O)c3ccc(Br)cc3)c3cc(Br)ccc32)CC1	101	102	8	18
Cc1ccc(C(=O)OCC(=O)NN2C(=O)NC3(CCC(C)CC3)C2=O)cc1 (stereo not drawn)	101	104	2	3

(next part)
SMILES	Polio RdRp inh	Polio RdRp inh intensity	MenB inh	Mtb MbtI inh
CC(Oc1ccccc1)C(=O)Nc1ccc(Cl)cc1 (stereo not drawn)	110	104	-7	x
CN(C)CCNC(=O)c1cn(-c2ccccc2)nc1-c1cccnc1	101	98	x	3
COc1ccc(N=C2N=C(N)c3ccccc32)cc1	102	102	x	5
C=CCn1cnc2scc(-c3ccc(C)cc3)c2c1=O	104	113	-6	x
CCOc1ccc(-c2nc(C#N)c(N(C)C)o2)cc1	102	109	-18	i
CCCCn1c(=O)c2ccccc2n2c(SCC(=O)N3CCN(c4ccccc4)CC3)nnc12	104	104	-19	6
Cc1cccc(NC(=O)C(CC(C)C)NC(=O)C2CCC(C)CC2)n1 (stereo not drawn)	99	96	6	24
O=C(Cn1cnc2sccc2c1=O)NC(=O)NCc1ccco1	111	118	-4	11
CCc1ccc(-c2csc(NC(=O)c3cccs3)n2)cc1	103	101	x	0
O=C(Cc1c(F)cccc1Cl)NCCCn1ccnc1	102	102	40*	-1
N#Cc1ccc(COC(=O)Cn2nc(-c3ccccc3)oc2=O)cc1	103	103	-30	-1
C[N+](C)(C)CC(=O)N1CCN(c2ccc3ccccc3n2)CC1	100	100	20	116
C=CCNCCOc1ccc(Cl)c(Cl)c1	102	104	-10	-4
CCOc1ccc(C2=NC(c3ccc(OC)cc3)NC(c3ccccc3O)C2)cc1 (stereo not drawn)	101	105	-6	3
CC1CCc2nc(NN)nc(C(F)(F)F)c2C1 (stereo not drawn)	102	105	-46	11
COC(=O)c1ccc(COc2coc(CN3c4ccccc4CC3C)cc2=O)cc1 (stereo not drawn)	102	102	-28	9
CCCCCCCCCCCCCCCCCCc1ccc(C(=O)/C=C/C(=O)O)cc1	98&98	102&99	-4	9
O=C(O)CCc1ccc(-c2cccs2)n1CC(=O)Nc1ccccc1	99	102	-4	25
Cc1ccc(C(=O)N2CC(=O)NC(=O)C2)cc1	100	101	23	-9
CC(=O)N1CN(Cc2ccccc2)Cc2c1sc1c2CCCC1	107	106	-32	37
CCOC(=O)C1=C(C)NC(SCC(=O)O)=C(C#N)C1c1ccco1 (stereo not drawn)	97	102	-7	-7
OC(CNCC1CCCO1)Cn1c2ccccc2c2ccccc21 (stereo not drawn)	101	103	9	-63
CC1SC(=N)N(c2ncc(Cc3ccccc3Cl)s2)C1=O (stereo not drawn)	102	103	-56	1
COc1ccc(-c2cc(C(F)F)n3ncc(C(=O)N4C(C)CCCC4C)c3n2)cc1 (stereo not drawn)	103	102	-15	2
O=C(O)CCn1[nH]c(=O)c2ccccc2c1=O	102	88	-27	-3

The list goes on.
SMILES	Polio RdRp inh	Polio RdRp inh intensity	MenB inh	Mtb MbtI inh
O=C1CC(N(O)c2ccccc2)C(=O)N1Cc1ccccc1 (stereo not drawn)	100	103	5	8
CC(=O)Nc1cccc(Cn2cccn2)c1	100	103	5	-14
CC(C)C(NC(=O)c1ccc(Cl)cc1)C(=O)NCC1CCCO1 (stereo not drawn)	99	105	16	4
COc1ccc(CCN(C)C(=O)COc2ncnc3ccccc23)cc1OC	107	103	-6	-2
CCN(C(=O)Cn1c(-c2ccco2)nc2ccccc21)c1ccccc1	103	98	x	-1
Cn1c(=O)c2cnc(-c3ccccc3)nc2n(C)c1=O	104	109	-8	-2
CCOC(=O)Nc1cccc(Nc2ccccc2)c1	103	104	-5	21
CN(C)/C=C/C(=O)c1csc(-c2ccccc2)n1	101	104	12	18
CCOc1ccc2nc(NC(=O)Nc3ccc(F)cc3)sc2c1	101	103	-17	-66
C=CCn1c2ccccc2c2nnc(SCCC)nc21	97	98	12	-3
CCN(CC)CC(=O)Nc1scc2c1c(=O)oc1ccccc12	101	105	17	4
COc1cc2c(cc1NC(=O)CCC1CCCCC1)oc1ccccc12	101	105	-22	196
